# High-throughput results (PubChem)
# Sa growth 42C – inhibitors of Staphylococcus aureus growth at 42 °C; S. aureus RN4220 growth, OD600, 20 h; active compounds read low; relative growth, % (test concentration not listed); hit rate 0.53% among 170,000;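 active means growth at 42 °C up to 50% and 20 or more points under that at 30 °C, or under 10% at both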;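 further: 300 nL library stock went into each well; scaled to the means of positive and negative controls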
# HCMV UL50-53 inh – disrupts HCMV UL50-UL53 complex binding; HTRF UL50-UL53 interaction, normalized percent inhibition; inhibition, % (concentration not given with the values); hit rate 0.15% among 190,000;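 active means both replicates at 50% or more, plus weaker picks with an unusually low signal ratio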;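 further: stock transfer was 100 nL into about 20 µL; 0% = negative control wells and 100% = wells with untagged competitor protein; inactives centre near -12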
# GIV-Gai inh – blocks GIV peptide binding to rat Galpha-i3; P08753; Galpha-i3/FITC-GIV peptide fluorescence polarization, 90 min; active compounds read low; scaled: aluminum fluoride 0%, vehicle 100%; percent of control (FP), % (test concentration not listed); hit rate 0.42% among 210,000; AID 1224905;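 active means replicate mean at 85% of control or lower, very high polarization wells dropped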;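 further: lower values mean more displacement of the GIV peptide from Galpha-i3; wells of about 15 µL received 100 nL stock; the first replicate is given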
# Target sequence (P08753 whole entry, looked up): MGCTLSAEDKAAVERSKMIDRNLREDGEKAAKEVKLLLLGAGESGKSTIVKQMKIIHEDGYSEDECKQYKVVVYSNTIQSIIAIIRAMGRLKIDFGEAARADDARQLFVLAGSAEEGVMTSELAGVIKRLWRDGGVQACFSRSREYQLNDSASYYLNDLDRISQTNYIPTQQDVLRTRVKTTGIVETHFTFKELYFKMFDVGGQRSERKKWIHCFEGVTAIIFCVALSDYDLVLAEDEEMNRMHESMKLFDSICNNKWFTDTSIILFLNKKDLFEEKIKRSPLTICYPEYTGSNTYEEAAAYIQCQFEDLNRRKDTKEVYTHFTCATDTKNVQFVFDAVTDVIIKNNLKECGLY
# Sa growth 42C second temp – second read-out of Sa growth 42C, no call of its own (marks repeat the call); relative growth, %; measured here: growth at 30 °C;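 optical density after 20 h as mean of two plates; 100% = untreated growth and lower means inhibition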
# * hit, by the source's call; . = no result given; & = joins results of further samples.
1. COc1ccc(OC)c(NC(=O)COc2cc(C)c3c(C)nn(-c4cccc(Cl)c4C)c3n2)c1
2. COc1ccc(C(=O)N2CCN(C(=O)c3ccco3)CC2)cc1S(=O)(=O)NCCc1ccccn1
3. CSc1nsc(SCC(=O)C(C)(C)C)n1
4. CN1/C(=C\C=N\NC(N)=S)C(C)(C)c2ccccc21
5. COc1ccc(C)cc1NC(=O)N1CCN(c2cc(-c3noc(C)n3)ccc2C)CC1
6. COC(=O)c1ccc(NC(=O)N2CCc3c([nH]c4ccccc34)C2c2ccc(C)cc2)cc1 (configuration not stated)
7. N#CC(C(=O)NC1CC1)c1nc2ccccc2nc1N1CCCC1 (configuration not stated)
8. Cc1ccc2cc(CN(C(=O)c3cccc(Cl)c3)c3ccccc3)c(=O)[nH]c2c1
9. c1ccc(CSc2ncnc3sc4c(c23)CCCC4)cc1
10. O=C(O)CCCSc1nc2ccccc2s1
Screen / compound no.,1,2,3,4,5,6,7,8,9,10
Sa growth 42C,.,93.5,100.0,127.7,75.2,99.0,77.5,120.0,89.6,99.2
Sa growth 42C second temp,.,86.3,88.7,96.3,90.3,62.6,89.6,89.6,97.7,86.8
HCMV UL50-53 inh,-79.8,-13.5,-31.8,-30.8,.,5.1,-6.5,-13.7,3.7,-14.7
GIV-Gai inh,100.8,.,101.9,.,98.5,105.0,.,105.7,.,.

# Part of the list above in order of molecular weight, rising:
9. c1ccc(CSc2ncnc3sc4c(c23)CCCC4)cc1
6. COC(=O)c1ccc(NC(=O)N2CCc3c([nH]c4ccccc34)C2c2ccc(C)cc2)cc1 (configuration not stated)
1. COc1ccc(OC)c(NC(=O)COc2cc(C)c3c(C)nn(-c4cccc(Cl)c4C)c3n2)c1
Screen / compound no.,9,6,1
Sa growth 42C,89.6,99.0,.
Sa growth 42C second temp,97.7,62.6,.
HCMV UL50-53 inh,3.7,5.1,-79.8
GIV-Gai inh,.,105.0,100.8

# Other records.
11. CCCc1cc(=O)n2c(C(=O)Nc3ccc(OCC)cc3)c(C(=O)Nc3ccc(C)cc3)sc2n1
12. O=C1C(O)=C(c2ccc(Cl)cc2)C(c2ccc(F)cc2)N1Cc1ccc(F)cc1 (configuration not stated)
13. CCOC(=O)N1CCc2c(sc3[nH]c(=S)n(-c4ccccc4)c(=O)c23)C1
14. O=c1[nH]c2cccnc2n1Cc1ccco1
15. COC(=O)NCC(c1cccnc1)N1CCOCC1 (configuration not stated)
16. O=C(C1=Cc2ccccc2OC1)N1CCCCC1
17. O=C(Cn1nnc(-c2cccc(C(F)(F)F)c2)n1)c1ccc2c(c1)OCCO2
18. CC1=C(CC(=O)c2ccccc2)C(=O)c2ccccc2C1=O
19. O=C(O)CCNC(=O)c1ccccc1Cl
20. Cn1nccc1N1C(=O)c2ccccc2C1=O
Screen / compound no.,11,12,13,14,15,16,17,18,19,20
Sa growth 42C,101.6,.,83.0,83.5,97.3,.,90.0,.,127.5,95.5
Sa growth 42C second temp,87.8,.,85.9,83.7,85.2,.,88.4,.,81.1,92.5
HCMV UL50-53 inh,-9.9,-4.9,-37.3,-10.6,.,-28.6,-22.0,13.3,-31.4,-25.5
GIV-Gai inh,100.0,101.8,103.7,101.3,103.0,107.4,.,103.6,.,102.2

# Exported as tab-separated lines: part of the list above
cpd	Molecule	Sa growth 42C	Sa growth 42C second temp	HCMV UL50-53 inh	GIV-Gai inh
4	CN1/C(=C\C=N\NC(N)=S)C(C)(C)c2ccccc21	127.7	96.3	-30.8	.
5	COc1ccc(C)cc1NC(=O)N1CCN(c2cc(-c3noc(C)n3)ccc2C)CC1	75.2	90.3	.	98.5
6	COC(=O)c1ccc(NC(=O)N2CCc3c([nH]c4ccccc34)C2c2ccc(C)cc2)cc1 (configuration not stated)	99.0	62.6	5.1	105.0
7	N#CC(C(=O)NC1CC1)c1nc2ccccc2nc1N1CCCC1 (configuration not stated)	77.5	89.6	-6.5	.
8	Cc1ccc2cc(CN(C(=O)c3cccc(Cl)c3)c3ccccc3)c(=O)[nH]c2c1	120.0	89.6	-13.7	105.7
9	c1ccc(CSc2ncnc3sc4c(c23)CCCC4)cc1	89.6	97.7	3.7	.
10	O=C(O)CCCSc1nc2ccccc2s1	99.2	86.8	-14.7	.
11	CCCc1cc(=O)n2c(C(=O)Nc3ccc(OCC)cc3)c(C(=O)Nc3ccc(C)cc3)sc2n1	101.6	87.8	-9.9	100.0
12	O=C1C(O)=C(c2ccc(Cl)cc2)C(c2ccc(F)cc2)N1Cc1ccc(F)cc1 (configuration not stated)	.	.	-4.9	101.8
13	CCOC(=O)N1CCc2c(sc3[nH]c(=S)n(-c4ccccc4)c(=O)c23)C1	83.0	85.9	-37.3	103.7
14	O=c1[nH]c2cccnc2n1Cc1ccco1	83.5	83.7	-10.6	101.3
15	COC(=O)NCC(c1cccnc1)N1CCOCC1 (configuration not stated)	97.3	85.2	.	103.0
16	O=C(C1=Cc2ccccc2OC1)N1CCCCC1	.	.	-28.6	107.4
17	O=C(Cn1nnc(-c2cccc(C(F)(F)F)c2)n1)c1ccc2c(c1)OCCO2	90.0	88.4	-22.0	.

# Following part
21. O=C(C1CCCN1c1nnc(N2CCCC2=O)s1)N1CCc2ccccc2C1 (configuration not stated)
22. N#CCNC(=O)c1cccc(I)c1
23. C=CCN=c1scc(-c2ccco2)n1/N=C(\C)CC
24. CCOC(=O)c1ccccc1NC(=O)c1sc2nc(C)nc(N(CC)CC)c2c1C
25. COC(=O)c1ccc(O)c(CSc2ccc(Cl)cc2)c1
26. COC(=O)c1cc(CO/N=C(\C)c2ccc3c(c2)OCCO3)oc1C
27. O=C1NC(=O)C(Cc2ccccc2)(Cc2ccccc2)N1
28. N#Cc1cccc(NC(=O)CCCC(=O)Nc2cccc(C#N)c2)c1
29. O=C(Cc1cccs1)N/N=C/C1CCCCC1
30. Cc1cc(C)n(-c2ccc(-n3cccc3/C=C(\C#N)S(C)(=O)=O)cc2)n1
Screen / compound no.,21,22,23,24,25,26,27,28,29,30
Sa growth 42C,87.3,124.8,121.0,102.9,98.3,89.1,88.9,93.6,89.4,102.5
Sa growth 42C second temp,86.2,99.9,92.5,98.2,57.1,96.7,90.6,86.4,89.1,89.9
HCMV UL50-53 inh,-14.8,-2.4,-20.6,.,-0.7,23.2,-8.7,-15.2,-4.3,-6.1
GIV-Gai inh,99.6,111.0,.,107.5,100.2,.,.,.,.,99.0

31. Cn1c(C(=O)O)c(CNCc2cccnc2)c2ccccc21
32. CCOC(=O)c1ccc(NC(=O)CN(c2ccc(OC)c(OC)c2)S(=O)(=O)c2ccc(C)cc2)cc1
33. O=C(COc1ccccc1)Nc1cccc(-c2nc3cccnc3s2)c1
34. CC(=O)N1CCc2cc(Br)cc(S(=O)(=O)N3CCC(C(=O)N(C)c4cc(C)ccc4C)CC3)c21
35. CCOc1ncccc1C(=O)NCc1ccc(S(N)(=O)=O)cc1
36. CSc1sc(-c2ccn[nH]2)c2c1C(=O)CC(C)(C)C2
37. CCOC(=O)C1CCN(c2c(C(=O)c3ccc(OCC)cc3)cnc3ccc(OC)cc23)CC1
38. CC(=O)Nc1ccc(NC(=O)C(C)OC(=O)Cc2c[nH]c3ccccc23)cc1 (configuration not stated)
39. OC(COCc1ccc2c(c1)OCO2)CN1CCN(c2ccc(F)cc2)CC1 (configuration not stated)
40. O=C(NCc1ccc2c(c1)OCO2)C1=NS(=O)(=O)c2ccccc2N1
Screen / compound no.,31,32,33,34,35,36,37,38,39,40
Sa growth 42C,103.7,.,75.6,97.2,98.6,93.8,85.1,90.2,104.0,.
Sa growth 42C second temp,88.4,.,80.8,85.9,94.4,92.9,78.8,90.8,100.0,.
HCMV UL50-53 inh,.,-13.1,.,-10.9,-2.4,5.8,1.8,-12.5,5.5,-14.5
GIV-Gai inh,103.5,105.8,101.5,104.7,.,106.4,100.0,.,.,100.6

41. Cc1cc(=O)n2nc(N3CCC(C(=O)NCc4ccccc4Cl)CC3)sc2n1
42. Cc1cc(S(=O)(=O)NCc2nn(-c3ccccc3)nc2C)c(C)s1
43. Clc1ccc(-c2ccc(CNCc3ccco3)o2)c(Cl)c1
44. CCOC(=O)c1cccc(NC(=O)C2=Cc3cc(C)ccc3OC=C2)c1
45. CCOC(=O)c1oc2c(c1C)/C(=N/OC(=O)c1ccccc1Cl)CCC2
46. COc1ccccc1-c1nn2c(-c3cc(C(C)C)[nH]n3)nnc2s1
47. Cn1cnc(S(=O)(=O)Nc2cccc3c2CCCC3)c1
48. Cc1cccc(-n2c(SCC(=O)Nc3ccccc3C)nc3c(oc4ccccc43)c2=O)c1
49. CCOc1ccc2nc(NC(=O)Cc3csc(NC(=O)c4cc(OC)cc(OC)c4)n3)sc2c1
50. Cn1c(SCC(=O)N/N=C2/CC3CCC2(C)C3(C)C)nnc1-c1ccco1 (configuration not stated)
51. CC(=O)Oc1ccc(N2C(=O)c3cccnc3C2=O)cc1
52. c1cc(C(N2CCOCC2)N2CCOCC2)ccn1
53. Cn1c(=NC(=O)c2cccc(F)c2)sc2ccccc21
Screen / compound no.,41,42,43,44,45,46,47,48,49,50,51,52,53
Sa growth 42C,104.6,94.1,.,.,104.9,.,.,106.1,.,71.9,102.2,103.2,101.8
Sa growth 42C second temp,86.0,91.5,.,.,86.7,.,.,83.8,.,92.0,91.6,96.0,91.0
HCMV UL50-53 inh,-23.7&-12.8,-12.4,-13.3,-27.3,-17.7,0.4,-7.4,-29.5,-27.8,-25.2,15.7,-13.3,10.8
GIV-Gai inh,105.2&101.3,97.1,103.1,104.4,92.9,102.4,111.9,101.9,104.5,.,107.8,103.6,.
